# Compound activity from PubChem.
# HNF4A DNA FP = change in binding of human HNF4 alpha to DNA; P41235; HNF4a-FITC DNA binding, fluorescence polarization, 1 h; activity change, % at 10 µM; 0.3% of 360,000 active; AID 1224865; in the data active = activity change above about 30%, passing the limit was not always enough;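 also: controls were the assay level and a saturating level of protein; the project sought stronger binding though the title names inhibitors; some compounds called inactive have numbers as strong as hits; positive values seem to mean higher polarization but the record does not say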
# Target sequence (P41235 whole entry, looked up): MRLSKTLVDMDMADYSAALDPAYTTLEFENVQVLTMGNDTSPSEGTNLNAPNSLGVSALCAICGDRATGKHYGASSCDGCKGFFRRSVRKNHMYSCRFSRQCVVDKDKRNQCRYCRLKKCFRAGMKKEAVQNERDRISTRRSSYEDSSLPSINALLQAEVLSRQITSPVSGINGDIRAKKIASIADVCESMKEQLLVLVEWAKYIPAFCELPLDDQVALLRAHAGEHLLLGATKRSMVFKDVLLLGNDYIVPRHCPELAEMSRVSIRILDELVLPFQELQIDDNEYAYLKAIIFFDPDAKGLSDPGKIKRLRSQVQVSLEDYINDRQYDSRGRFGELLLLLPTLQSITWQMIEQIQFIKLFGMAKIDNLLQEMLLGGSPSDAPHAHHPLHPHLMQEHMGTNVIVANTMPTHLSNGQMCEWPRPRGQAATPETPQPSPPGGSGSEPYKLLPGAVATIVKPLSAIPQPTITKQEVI
# Calb FLC = affects C. albicans growth with fluconazole. 0.57% of 300,000 active. C. albicans CaCi-2 (fluconazole-resistant clinical isolate) + fluconazole, Alamar Blue growth, 48 h. growth inhibition, % (no concentration beside the values);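 active = most replicates above 75%; inconclusive = exactly half above 75%; inactive = most below 75%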;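 also: all wells also contain fluconazole at 8 µg/ml as a sub-toxic cotreatment; 0% = median of DMSO wells and 100% = median of geldanamycin control wells; wells of about 8 µL received 7.5 nL stock; the first replicate is given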
# RanGTP-Impb inh = disruptors of Ran-importin-beta complex formation – biochemical, FRET, CFP-Ran, YFP-importin-beta, homogeneous, primary screen. 1.1% of 300,000 active. cell-free CFP-Ran/YFP-importin-beta FRET ratio. inhibition, % (no concentration beside the values);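 active = most replicates above 15%; inconclusive = exactly half above 15%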;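 also: 0% = DMSO wells and 100% = Ran loaded with GDP instead of GTP; wells of about 40 µL received 100 nL stock; the first replicate is given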
# ALR H2O2 inh = human ALR oxidase inhibition via reduced H2O2; P55789; purified ALR, DTT oxidation, H2O2 HRP-luminol luminescence; inhibition, % (concentration not given with the values); 3.8% of 290,000 active;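 active = mean and each replicate at 75% or more; inconclusive = only one of the two met; inactive = neither met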;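 also: stock transfer was 7.5 nL into about 7.5 µL; 0% = neutral wells and 100% = wells with inactivated enzyme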
# Target sequence (P55789 whole entry, looked up): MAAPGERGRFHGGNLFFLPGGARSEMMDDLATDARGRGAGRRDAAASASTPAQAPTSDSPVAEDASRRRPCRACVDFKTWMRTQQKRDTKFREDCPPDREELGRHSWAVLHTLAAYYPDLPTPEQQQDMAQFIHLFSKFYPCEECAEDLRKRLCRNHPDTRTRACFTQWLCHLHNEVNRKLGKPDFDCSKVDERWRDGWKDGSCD
# B2AR ag = human beta-2 adrenergic receptor agonism by FAP; P07550; Am2.2-beta2AR cells, FAP receptor internalization, flow cytometry; reference of the scale not given here; response, % (test concentration not listed); 0.43% of 340,000 active; AID 504454;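 active = response above a set limit, near 3 SD of response in nonfluorescent compounds, cut at about 42% in these data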;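 also: stock transfer was 100 nL into about 11 µL; a reference agonist was the positive control; negative values mostly stem from fluorescent compounds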
# Target sequence (P07550 whole entry, looked up): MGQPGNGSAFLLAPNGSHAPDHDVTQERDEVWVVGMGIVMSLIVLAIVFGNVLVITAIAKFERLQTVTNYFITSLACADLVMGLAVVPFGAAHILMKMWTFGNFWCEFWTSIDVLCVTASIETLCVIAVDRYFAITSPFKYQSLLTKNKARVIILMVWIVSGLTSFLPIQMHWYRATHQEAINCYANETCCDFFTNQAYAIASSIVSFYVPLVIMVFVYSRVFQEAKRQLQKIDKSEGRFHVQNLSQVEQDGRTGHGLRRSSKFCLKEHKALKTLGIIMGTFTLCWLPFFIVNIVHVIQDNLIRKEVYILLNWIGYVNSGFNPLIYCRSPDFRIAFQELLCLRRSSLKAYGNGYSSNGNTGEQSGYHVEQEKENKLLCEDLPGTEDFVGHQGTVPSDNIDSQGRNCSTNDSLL
# Vif TR-FRET = HIV-1 Vif–A3G interaction blockers – biochemical, TR-FRET, GST-Vif 1-94, biotin-A3G peptide, dose response retest, primary screen (AID 1117319). 0.57% of 260,000 active. TR-FRET GST-Vif / biotin-A3G peptide binding; higher % means a stronger effect; test concentration not given here; strong numbers were not always called active. inhibition, %, or IC50 in µM where a hit was titrated;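 active = above the screen mean plus three standard deviations and confirmed in dose response; inconclusive = results disagree or hit not tested in dose response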;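 also: Vif residues 1-94 fused to GST binding biotinylated APOBEC3G peptide 110-148; 0% = full assay without inhibitor and 100% = GST in place of GST-Vif; retest series ran down from 100 µM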
# LANA-H2A inh = blocks KSHV LANA binding to histone H2A/H2B | cell-free LANA-H2A/H2B peptide, fluorescence polarization | inhibition, % (test concentration not listed) | AID 2629 | 0.6% of 320,000 active; in the data active = inhibition mostly above about 10%, no sharp cut-off; inactive = mostly below about 6.7%;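 also: stock transfer was 7.5 nL into about 10 µL; 0% = median of vehicle wells and 100% = median of positive control wells; one replicate is shown; the record names a cut of 25% in any replicate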
# Starred values were filed as active, the others as inactive; ? = inconclusive; · = not tested or not shown; & = joins results of further samples.
SMILES,HNF4A DNA FP,Calb FLC,RanGTP-Impb inh,ALR H2O2 inh,B2AR ag,Vif TR-FRET,LANA-H2A inh
On1c(-c2ccccc2)nc2ccccc21,1.6,18,-1.9,2,3,12%,-0.7
COc1cccc(C(=O)NCC(=O)OCC(=O)C(C)(C)C)c1,-1.1,-23,0.8,-2,2,25%,0.9
Cc1ccccc1C(=O)c1cccn1CC(=O)NCCN1CCN(c2cccc(C)c2C)CC1,0.5,33,0.8,-6,0,?,-0.7
O=S(=O)(Nc1ccc(-c2ccc3nncn3n2)cc1)c1ccccc1Cl,4.1,-1,0.1,3,15,4%,-10
CN(CC(=O)Nc1ccc(Cl)cc1)CC(=O)Nc1cccc(Br)c1,1.0,-8,-3.5,-10,12,·,2.5
COC(=O)[C@H](Cc1ccccc1)NC(=O)Cn1ccc(NC(=O)OCc2ccccc2)nc1=O,-0.5,·,·,0,-1,·,-1.8
CC(=O)Nc1ccc(S(=O)(=O)N2CCc3ccccc3C2)cc1,-3.6,10,?,-21,5,22%,-2.1
COc1ccc(-c2cc(C)no2)cc1S(=O)(=O)N(C)c1ccc(C)cc1,-3.1,34,2.5,-2,-16,·,3.1
Cc1cccc(C)c1NC(=O)CN(C)CC(=O)Nc1cc(Cl)ccc1C#N,2.2,-4,2.8,·,-9,?,1.6
Cc1cccc(/C=N/NC(=O)NC23CC4CC(CC(C4)C2)C3)n1,5.2,-1,4.0,·,-7,-2%,6.5
COc1ccc(C(C(N)=O)c2ncc(C(F)(F)F)cc2Cl)cc1 (stereo not given),0.6,?,4.7,1,-6,·,-2.0
CC(=O)c1cccc(Oc2cc(NN3CCCCC3)c([N+](=O)[O-])cc2[N+](=O)[O-])c1,-0.8,11,-1.4,93*,-7,·,2.5
CC(C)/C=C/C(=O)N1CCC(N2CCC(C(=O)N3CCOCC3)CC2)CC1,0.9,16,1.6,-43,-2,4%,0.6
Cc1cc(C)cc(NC(=O)CN2CCCN(S(=O)(=O)c3ccc(Br)s3)CC2)c1,0.5,-13,0.2,-1,12,1%,-2.7
O=C(Nc1cccc(C(=O)N2CCOCC2)c1)NC1CCCCC1,2.8,-4,3.7,2,0,-2%,3.1
COCCNC(=O)CN(Cc1ccc2c(c1)OCO2)C(=O)CCC(=O)Nc1nccs1,0.4,11,3.1,·,4,-8%&-3%,18*
COCCn1c(SCC(=O)Nc2ccc(S(=O)(=O)N(C)C)cc2)nc2ccccc21,-5.1,-2,5.7,-8,-3,-3%,3.6
O=C(CCc1nnc2ccc(N3CCCCC3)nn12)NCc1ccco1,6.4,-1,-3.1,-6,-12,·,-0.4
Cc1ccc2c(c1)[C@H]1[C@H](CO2)[C@H](c2ccccc2)[C@]2(C)C(=O)Nc3ccccc3C(=O)N12,1.0,·,·,-2,14,·,-0.2
CCOc1cc(C#N)c(NC(=O)CSc2nnnn2-c2ccc(OC)cc2)cc1OCC,-1.2,3,-1.7,-11,0,?,-12
NC(=O)CSc1nnnn1-c1ccc2c(c1)OCCO2,5.2,-4,4.9,0,1,0%,-1.3
Cc1cc(C(=O)NC2CC(C)(C)Cc3c2cnn3-c2cccc(F)c2)nn1C (stereo not given),0.2,11,-0.1,3,-4,-3%,-7.9
CNC(=S)N/N=C/c1cn(CCOc2cccc(OC)c2)c2ccccc12,0.4,-19,0.0,·,10,-12%,·
O/N=C1\CCCc2oc3c(c21)CCCC3,1.4,3,?,34,-2,?,-3.1
CCOC(=O)c1[nH]nc2c1C(=O)N(CC)C2=O,1.2,10,3.4,·,9,-7%,-3.5

# Entries of single compounds as entered above. Order of values: HNF4A DNA FP	Calb FLC	RanGTP-Impb inh	ALR H2O2 inh	B2AR ag	Vif TR-FRET	LANA-H2A inh
# Record of Cc1cccc(C)c1NC(=O)CN(C)CC(=O)Nc1cc(Cl)ccc1C#N → 2.2	-4	2.8	·	-9	?	1.6
# Record of Cc1ccc2c(c1)[C@H]1[C@H](CO2)[C@H](c2ccccc2)[C@]2(C)C(=O)Nc3ccccc3C(=O)N12 → 1.0	·	·	-2	14	·	-0.2
# Record of CNC(=S)N/N=C/c1cn(CCOc2cccc(OC)c2)c2ccccc12 → 0.4	-19	0.0	·	10	-12%	·
# Record of O=S(=O)(Nc1ccc(-c2ccc3nncn3n2)cc1)c1ccccc1Cl → 4.1	-1	0.1	3	15	4%	-10
# Record of COc1cccc(C(=O)NCC(=O)OCC(=O)C(C)(C)C)c1 → -1.1	-23	0.8	-2	2	25%	0.9

# Next section.
SMILES,HNF4A DNA FP,Calb FLC,RanGTP-Impb inh,ALR H2O2 inh,B2AR ag,Vif TR-FRET,LANA-H2A inh
CCOC(=O)c1sc(-n2[nH]c(C)cc2=O)nc1C,0.4,-1,-0.2,14,3,28%,-5.8
O=C(c1ccc2[nH]c3c(c2c1)CCCC3)N1CCN(c2ccc(F)cc2)CC1,2.9,0,9.1,4,8,1%,4.5
CC(CCc1ccccc1)NC(=O)CCC1CCCC1 (stereo not given),-3.0,-9,7.1,3,-11,·,1.2
Cc1cc(C)n(C2CC(=O)N(c3ccc(C)c(Cl)c3)C2=O)n1 (stereo not given),1.8,?,-6.3,-17,4,9%,1.2
CCOc1cc(C(=S)N2CCCCC2)ccc1OS(=O)(=O)c1ccc(Cl)cc1,-2.9,1,-0.1,-7,4,3%,13
CCCCCN(C(=O)NC(=O)Nc1ccccc1OC)S(C)(=O)=O,2.3,8,5.2,-5,1,1%,1.8
CC(=O)NNS(=O)(=O)c1scc(S(=O)(=O)c2ccc(Cl)cc2)c1C,-1.6,8,0.6,-2,-1,-6%,-1.8
COc1ccc(S(=O)(=O)N2CCC(C(=O)OCC(=O)c3ccccc3)CC2)cc1[N+](=O)[O-],1.4,0,-1.3,0,-5,23%,-2.7
Cc1cc(N2CCOCC2)c2c(N)c(Br)cc(C)c2n1,0.3,-3,6.5,40,5,?,1.0
Cc1ccc(/C=N\NC(=O)c2ccc(Cn3cc(Br)c([N+](=O)[O-])n3)o2)o1,-5.2,1,-1.9,-27,-2,20%,-3.2
CC(C)(C)c1ccc(Cn2nnc3c(=O)[nH]c(C4CCN(C(=O)Cc5cccs5)CC4)nc32)cc1,1.1,-3,6.5,-17,4,?,0.0
COC(=O)c1ccsc1NC(=O)c1cccc(OC)c1,2.1,3,1.4,·,-2,8%,0.7
CCOc1ccc(C(=O)Nc2nnc(C(C)C)s2)cc1OCC,0.4,-15,2.5,-1,-21,2%,5.5
Cc1c(Cl)cccc1NC(=O)N1CCCN(c2nc(-c3ccccc3)ns2)CC1,0.3,1,1.1,-2,-3,30%,0.1
C/C(=N/NC(=O)c1ccc(C)nc1)c1ccc2c(c1)CCCC2,-4.1,-1,4.6,2,-6,-5%,-2.0
CCC1Oc2ccc(C)cc2N(CC(=O)N2CCCC2)C1=O (stereo not given),0.0,12,0.3,-1,3,-9%,-2.6
CCOC(=O)C1=C(COC(=O)CNC(=O)c2ccc(C)cc2)NC(=O)NC1C (stereo not given),6.1,-8,-0.4,-3,3,·,-3.3
CC1CC(C)CN(C(=O)COC(=O)COc2ccccc2C#N)C1 (stereo not given),-4.5,·,·,-1,3,2%,0.1
CCCS(=O)(=O)c1nc(S(=O)(=O)c2ccc(C)cc2)c(NCCCN2CCCC2=O)s1,4.2,11,0.5,-3,-4,·,-2.0
CC1(C(=O)O)COC(c2ccc([N+](=O)[O-])cc2)OC1 (stereo not given),-0.1,11,4.0,-15,4,-2%,-2.1
CCCC(=O)N1CCN(c2ccc(NC(=O)c3cc4ccccc4o3)cc2Cl)CC1,-0.8,-1,?,48,27,5%&3%,-1.2
Cc1cc(NC(=O)CN2CCCCC2C)nc2c1c(=O)oc1ccccc12 (stereo not given),·,-2,4.1,-36,·,-11%,-2.1
CCc1noc(C)c1C(=O)NCCN1C(=O)S/C(=C\c2ccc(OC)cc2)C1=O,1.5,-15,?,-11,-6,-8%,-7.4
NNC(=O)/C(=N/Nc1ccccc1)S(=O)(=O)c1ccc(Cl)cc1,6.8,-63,2.3,-19,-7,17%,0.3
O=[N+]([O-])C(=C1NCCN1)C(Cl)=C(Cl)Cl,0.5,-19,0.3,41,-3,12%,0.3
SMILES,HNF4A DNA FP,Calb FLC,RanGTP-Impb inh,ALR H2O2 inh,B2AR ag,Vif TR-FRET,LANA-H2A inh
Cc1c(C(c2ccc(N(C)C)cc2)c2c(C)n(C)n(-c3ccccc3)c2=O)c(=O)n(-c2ccccc2)n1C,-4.2,40,7.9,-7,-33,3%,4.0
O=C(CCc1nnc(Cc2ccc(-c3ccccc3)cc2)o1)NCC1CC1,2.5,?,-0.1,-3,2,·,6.0
CC(C)CN1CC(C)C(=O)N(c2ccccc2)C1=S (stereo not given),5.5,·,·,·,-1,-7%,·
CCCN1CCN(C(=O)CCS(=O)(=O)c2cc3c(cc2Cl)NC(=O)CO3)CC1,-2.0,6,-1.6,-4,8,·,5.9
CCOc1ccc(CCNC(=O)COc2cccc(-n3cnnn3)c2)cc1OCC,3.1,1,-0.8,-1,-4,4%,-2.6
COc1ccc(CNC(=O)C(c2ccco2)N(C(=O)CNS(=O)(=O)c2ccccc2)c2ccccc2C)cc1 (stereo not given),3.1,3,3.9,-5,1,?,-2.6
Cc1ccccc1-n1sc2cc(F)ccc2c1=O,5.4,·,·,·,7,-2%,-3.3
O=C1NC(c2ccccc2Cl)Nc2ccccc21 (stereo not given),2.1,-5,-2.5,·,-10,23%,1.2
Cn1ncc(Cl)c1C(=O)NCc1ccco1,0.9,4,-2.4,-3,3,1%,-1.2
CCN(CC)C(=O)C(=O)Nc1ccc(Oc2ccccc2)cc1,-3.4,-1,1.4,3,-10,-2%,-4.9
O=C(CN1CCCCCCC1)Nc1cccc(Cl)c1Cl,-0.4,22,?,0,-8,·,-4.2
CC1(C)CC(=O)C(C(C2=C(O)CC(C)(C)CC2=O)c2ccc([N+](=O)[O-])cc2)C(=O)C1 (stereo not given),-0.4,?,1.6,23,3,·,0.2
COc1ccc(N=C2SCC(c3ccccc3)=NN2C)cc1,-0.7,0,-2.1,0,-1,0%,-1.7
Cc1c(NS(=O)(=O)N2CCCCC2)c(=O)n(-c2ccccc2)n1C,1.0,35,5.3,14,-4,-3%,1.6
NC(=O)C1CCN(C(=S)c2ccc(-c3ccc(Br)cc3)o2)CC1,-3.8,-7,6.1,-20,3,-26%,14*
CC(C)Oc1ccc(C(=O)OC(C)C(=O)NC2CCCCC2C)cc1 (stereo not given),-4.9,-5,?,1,1,3%,-0.3
CCOC(=O)c1ccc(NC(=O)C2=C(C)Nc3nc(CCCO)nn3C2c2cccc(C)c2)cc1 (stereo not given),0.6,5,-1.9,-14,-7,6%&4%,-3.4
C=CCN=C1SCC(=O)N1S(=O)(=O)c1ccccc1,-2.2,-17,4.5,·,0,0%,-0.7
COc1ccc(/C=C2\SC(=O)N(CCNC(=O)Cn3[nH]c(=O)c4ccccc4c3=O)C2=O)cc1,0.7,·,·,27,14,-7%,-2.6
CCOC(=O)C1CCN(C2=C(NS(=O)(=O)c3ccc(Cl)cc3)C(=O)c3ccccc3C2=O)CC1,-0.3,12,-2.9,-7,7,5%,-4.2
CCOc1ccc(OCc2cccc(C(=O)O)c2)cc1,-1.3,-16,0.8,-4,5,16%,1.4
O=C(/C=C/c1ccc2c(c1)OCO2)Nc1ccc(Cl)cn1,3.3,-49,-1.7,4,9,·,1.4
O=C1/C(=C/c2cccs2)CCC/C1=C\c1cccs1,12,-3,-1.0,-12,-12,·,-4.2
CC1CN(c2ccccc2)NC1=O (stereo not given),2.6,3,-0.3,99*,3,-6%,-3.6
C/C(=N/NC(=O)CNC(=O)c1cccnc1)c1ccco1,-2.8,15,1.5,-2,-1,3%,-1.6
COc1cc(CN2CCCCC2C(=O)Nc2ccc(Oc3ccccc3)nc2)ccc1O (stereo not given),3.1,-4,-2.3,24,10,3%,2.8
